Sfp PPTase inh – Sfp phosphopantetheinyl transferase inhibition; Biochemical Sfp PPTase activity, qHTS; Potency, µM, inactives show max response, negative = inhibition, actives largely listed as inhibitors; actives 3.5% (n = 310,000); active means well fitted inhibition curve with a large enough effect; inconclusive means small, poorly fitted or top-dose-only effect, or another doubt; inactive means no such curve, though single readings can be large or run the other way;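 further: the enzyme is Sfp with the accession as filed and its product quenches rhodamine fluorescence; potency means the concentration at half of the fitted maximal effect; 0% = enzyme reaction without inhibitor and -100% = no enzyme wells; top concentration of the series not given in the record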
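Reaction rates are the 30-min fluorescence difference (ex 525, em 598 nm) in wells containing 15 nM Sfp, 5 uM rhodamine-CoA and 12.5 uM BHQ-2-YbbR at pH 7.6 with 10 mM MgCl2.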
gsp antag – gsp mutant antagonism; Potency, µM (series often up to 76.9 µM), inactives show at the top dose activity change, negative = inhibition, most hits filed as inhibitors; AID 624288; actives 0.4% (n = 340,000); gsp-mutant cells, cAMP HTRF, 30 min; control for the full effect not named in the record; active = falling curve of any shape with a large fitted effect; inconclusive = falling curve, mostly with a smaller effect; inactive = flat or rising curve; cell line not stated here;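 further: intracellular cAMP measured with PDE inhibitor Ro 20-1724 present during compound exposure; potency means the concentration at half of the fitted maximal effect; on the % scale 0 is the no-effect control and ±100 the full control effect; nearly all actives have a fitted effect of over 65% in size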
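HTRF cAMP measurement after 30 min RT detection following 30 min, 37C compound treatment alongside […] (added as 300 uM solution) in G418-selected cells seeded at 2000/well and grown 16–24 h.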
gsp agonist – activates gsp, the McCune-Albright syndrome mutation; gsp mutant cells, cAMP HTRF, 30 min; control for the full effect not named in the record; Potency, µM (highest dose often 76.9 µM), inactives show at the highest dose activation (cAMP increase), hits mostly activators; actives 0.13% (n = 340,000); AID 624287; active = well fitted activation curve with a large enough effect; inconclusive = small, poorly fitted or top-dose-only effect, or another doubt; inactive = no such curve, though single readings can be large or run the other way; cell line not stated here;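 further: phosphodiesterase inhibitor Ro 20-1724 added with compounds to block cAMP breakdown; potency means the concentration at half of the fitted maximal effect; nearly all actives have a fitted effect of over 60% in size; about a fifth of the inactives were tested at one dose only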
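Cells in DMEM/10% FBS with G418 were pretreated with compounds in DMSO plus […] (300 uM stock) for 30 min at 37C. cAMP was measured by HTRF (cAMP-d2 plus anti-cAMP antibody-K) after 30 min at room temperature.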
Menin-MLL FL inh – menin-MLL binding inhibition, fluorescein peptide | 290,000 tested, under 10 active | FP activity change, % at 61.4 µM | Fluorescence polarization, fluorescein-MLL peptide displacement from menin; inconclusive = falling polarisation curve, or a change in total fluorescence; inactive = total fluorescence flat and polarisation flat or rising; no compound was filed as active; the % refers to the polarisation; negative = inhibition;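 further: % of control where 0% means no effect; inhibitors lower the polarisation; unlabelled MLL peptide was the positive control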
D2 agonist – agonists of human D2 dopamine receptor (beta-arrestin); P14416; DiscoveRx PathHunter D2 beta-arrestin, luminescence, 90 min; 100% = 57 uM dopamine signal; activation, % (test concentration not listed); actives 0.084% (n = 360,000); in the data active = activation above about 40%; inconclusive = about 15% to 40%; inactive = below about 15%; further: compound concentration not given in the record; the text of the record calls up to 30% inactive
Target sequence (P14416 whole entry, looked up): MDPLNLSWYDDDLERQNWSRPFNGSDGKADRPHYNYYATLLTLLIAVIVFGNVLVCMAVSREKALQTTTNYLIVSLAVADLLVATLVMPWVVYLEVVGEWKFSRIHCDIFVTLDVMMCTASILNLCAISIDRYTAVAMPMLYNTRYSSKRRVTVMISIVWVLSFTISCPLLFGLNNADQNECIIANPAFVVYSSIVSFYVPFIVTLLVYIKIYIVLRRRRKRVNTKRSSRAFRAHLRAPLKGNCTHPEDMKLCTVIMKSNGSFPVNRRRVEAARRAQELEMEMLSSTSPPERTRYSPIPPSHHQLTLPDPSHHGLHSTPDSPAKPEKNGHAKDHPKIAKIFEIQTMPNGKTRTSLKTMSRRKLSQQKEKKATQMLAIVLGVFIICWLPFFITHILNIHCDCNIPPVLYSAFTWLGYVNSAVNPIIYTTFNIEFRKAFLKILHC
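Agonist mode: compounds alone added to overnight-plated D2 PathHunter cells for 90 min at 37 C, with 57 uM final dopamine (EC100) defining full response. Beta-arrestin recruitment detected by chemiluminescent reagent, read after 1 h at ambient temperature.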
ClpP mod – qHTS Assay for Activators of ClpP; ATP-dependent Clp protease proteolytic subunit (Bacillus subtilis (strain 168)), P80244; purified B. subtilis ClpP, FRET peptide cleavage, 20 min; Potency, µM (series often up to 57.5 µM), for inactives: at the highest dose activity change, negative = active; actives 1.9% (n = 340,000); active = well fitted falling curve with a large enough effect; inconclusive = small, poorly fitted or top-dose-only effect; inactive = no such curve, though single readings can be large or run the other way; further: potency means the concentration at half of the fitted maximal effect; the source files actives as falling curves though it sought activators and does not explain the sign; nearly all actives have a fitted effect of over 65% in size; many hits overshoot -100%
Target sequence (P80244 whole entry, looked up): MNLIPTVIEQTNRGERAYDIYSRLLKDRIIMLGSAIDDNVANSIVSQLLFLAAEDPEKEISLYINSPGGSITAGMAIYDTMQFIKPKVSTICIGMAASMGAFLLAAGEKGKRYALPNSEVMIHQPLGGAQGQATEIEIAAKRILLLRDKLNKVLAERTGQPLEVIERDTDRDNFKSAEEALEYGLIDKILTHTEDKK
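FRET quenching reversal measured ClpP activation: 10 microg/mL B. subtilis ClpP at pH 8 with the FRET-FV decapeptide, read at 430 nm after 320 nm excitation. The 20-min minus 0-min signal was scaled between DMSO/no-enzyme wells and ADEP (5.8 microM final).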
PINK1 modulator – changes PINK1 expression | PINK1 immunofluorescence, high-content cytometry, 24 h | Potency, µM (series often up to 76.6 µM), for the others: at the top dose activation (PINK1 increase), usual class: activators | actives 0.2% (n = 410,000); active = well fitted activation curve with a large enough effect; inconclusive = small, poorly fitted or top-dose-only effect; inactive = flat fitted curve, though single readings scatter; cell line not stated here;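 further: potency means the concentration at half of the fitted maximal effect; % of control where 0% means no effect; nearly all actives have a fitted effect of over 65% in size; a mitochondrial uncoupler was the plate control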
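Decision-based qHTS: stable cells, 24 h exposure to five compound concentrations, CCCP as control. Fixed cells stained for PINK1 plus nuclear, mitochondrial and cell markers, cytometer read.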
The depositor's hits bear a star; [ ] = another dose, or the depositor's remark.

What do the screens show for `Cc1ccc(C(=O)N2CCN(C(=O)CN3CCOCC3)C2)cc1`?
Sfp PPTase inh: 2%; gsp antag: 10%; gsp agonist: -26%; Menin-MLL FL inh: 1.6; D2 agonist: 0.2; ClpP mod: 1.4%; PINK1 modulator: 1.4%

Results for COc1ccc(CCN(C)C(=O)Cn2c(=O)oc3ccccc32)cc1OC ?
Sfp PPTase inh: 19%; gsp antag: 8%; gsp agonist: -9%; Menin-MLL FL inh: 0.0; D2 agonist: -1.2; PINK1 modulator: 3.1%

What do the screens show for `CC1=C(C(=O)N2CCOCC2)CC(CC(=O)NCC2CCCCC2)C(=O)N1Cc1ccc(C(C)(C)C)cc1` (stereo not drawn)?
D2 agonist: 2.2; ClpP mod: 1.3%; PINK1 modulator: -0.5%

Results for O=C(Cc1ccccc1)Nn1c(-c2ccccc2)nc2ccccc2c1=O ?
Sfp PPTase inh: 2%; gsp antag: 8%; gsp agonist: 1%; Menin-MLL FL inh: -2.1; D2 agonist: -4.0; ClpP mod: -1.9%; PINK1 modulator: 4.4%

How did CC1CN(C(=O)c2ccc(COc3ccccc3Cl)o2)CC(C)O1 (stereo not drawn) do in these assays?
Sfp PPTase inh: 9%; gsp antag: -4%; gsp agonist: -13%[15.4 µM]; Menin-MLL FL inh: -1.0; D2 agonist: 2.9; PINK1 modulator: 2.6%

How did CN1CCN(c2ccc(CNC[C@H]3O[C@@H](n4cnc5c(=O)[nH]c(N)nc54)[C@H](O)[C@@H]3O)c(S(C)(=O)=O)c2)CC1 do in these assays?
D2 agonist: -2.2; ClpP mod: -1.7%; PINK1 modulator: 0.5%

How did COC(=O)[C@@]1(Cc2ccc(F)cc2)[C@H]2c3cc(C(=O)N4CCCC4)n(Cc4cc(F)cc5c4OCOC5)c3C[C@H]2CN1C(=O)c1ccccc1 do in these assays?
Sfp PPTase inh: 10%; Menin-MLL FL inh: 7.7; ClpP mod: -3.9%; PINK1 modulator: 4.6%

What do the screens show for `COc1cccc(NC(=O)CN(C)C(=O)CN2C(=O)NC3(CCCC3)C2=O)c1`?
gsp antag: 10%; gsp agonist: -36%[inhibitor]; D2 agonist: -3.5; ClpP mod: -5.2%; PINK1 modulator: -0.9%

How did Cc1nn(C)cc1CN(C)C(=O)c1cc(COc2ccc(F)cc2F)on1 do in these assays?
Sfp PPTase inh: 14%; gsp antag: 9%; gsp agonist: -80%[inhibitor]; Menin-MLL FL inh: -0.4; D2 agonist: 9.4; ClpP mod: 0.4%; PINK1 modulator: 0.7%

How did Cc1ccc(C)c(N2CCN(S(=O)(=O)CC34CCC(CC3=O)C4(C)C)CC2)c1 (stereo not drawn) do in these assays?
Sfp PPTase inh: -7%; gsp antag: -10%; gsp agonist: -15%; Menin-MLL FL inh: 3.2; D2 agonist: -1.1; ClpP mod: 0.5%; PINK1 modulator: 0.8%

How did COc1ccc([C@H]2CC(=O)C=C(c3ccc(C)cc3)C2)cc1OC do in these assays?
gsp antag: -19%; gsp agonist: -39%[inhibitor]; D2 agonist: 3.0; ClpP mod: 0.9%; PINK1 modulator: 0.5%

What do the screens show for `Cc1ccc(NS(=O)(=O)c2ccc3[nH]c(=O)sc3c2)cc1`?
Sfp PPTase inh: 25%; gsp antag: -13%; gsp agonist: -3%[15.4 µM]; Menin-MLL FL inh: -0.9; D2 agonist: -1.7; PINK1 modulator: 2.4%

Results for Cc1cccc(CC2SC(N)=NC2=O)c1 (stereo not drawn) ?
Sfp PPTase inh: -20%; gsp antag: 10%; gsp agonist: -7%; Menin-MLL FL inh: 1.7; D2 agonist: 6.3; PINK1 modulator: -0.6%

How did C=CCn1c(SCC(=O)Nc2nnc(CC)s2)nnc1-c1ccncc1 do in these assays?
Sfp PPTase inh: -18%; gsp antag: -2%; gsp agonist: -43%[inhibitor]; Menin-MLL FL inh: 0.5; D2 agonist: -2.6; PINK1 modulator: 1.1%

How did Cc1cc(SCc2ccccc2)nc(=O)[nH]1 do in these assays?
Sfp PPTase inh: 15%; gsp antag: 10%; gsp agonist: -20%; Menin-MLL FL inh: 6.6; D2 agonist: -1.3; ClpP mod: 2.0%; PINK1 modulator: 1.8%

Results for COc1ccc(CNS(=O)(=O)CCNC(=O)c2ccccc2)cc1 ?
gsp antag: -5%; gsp agonist: -27%[15.4 µM]; D2 agonist: -5.3; ClpP mod: -1.7%; PINK1 modulator: -1.1%

What do the screens show for `O=C(C[C@@H]1C/C=C/CC[C@H](Cc2ccc(F)cc2)C(=O)OC[C@@H](Cc2ccccc2)NC1=O)N[C@H](CO)Cc1ccccc1`?
gsp antag: 7%; D2 agonist: -3.9; ClpP mod: -0.4%; PINK1 modulator: 12%

How did COC(=O)C1=C(C)N(CCCC(=O)O)C(=O)NC1c1ccc(Br)cc1 (stereo not drawn) do in these assays?
Sfp PPTase inh: 0%; gsp antag: 5%; Menin-MLL FL inh: -1.0; D2 agonist: -0.2; ClpP mod: -0.9%; PINK1 modulator: -0.6%

How did COc1ccc(CN(C)CC(O)COc2ccc(C(=O)c3ccccc3)cc2)c(OC)c1OC (stereo not drawn) do in these assays?
Sfp PPTase inh: 7%; gsp antag: -1%; gsp agonist: inconclusive; Menin-MLL FL inh: 0.9; D2 agonist: 1.4; PINK1 modulator: -0.2%

Results for Fc1ccc(CNCc2ccc3c(c2)OCO3)cc1 ?
Sfp PPTase inh: 18%; gsp antag: -11%; gsp agonist: 4%[15.4 µM]; Menin-MLL FL inh: 0.5; D2 agonist: -2.2; ClpP mod: -2.2%; PINK1 modulator: -0.4%

How did Cn1cc(C(=O)CCl)c2ccccc21 do in these assays?
Sfp PPTase inh: 1%; gsp antag: -3%; gsp agonist: 2%; Menin-MLL FL inh: -0.8; D2 agonist: 2.3; ClpP mod: 0.9%; PINK1 modulator: -3.2%

Results for N#CC1=C2SCC(O)(c3ccccc3)N2C(=O)CC1c1ccccc1F (stereo not drawn) ?
Sfp PPTase inh: 50µM*; gsp antag: 20%; gsp agonist: -19%; Menin-MLL FL inh: 11; D2 agonist: 0.5; ClpP mod: -2.0%; PINK1 modulator: 9.3%

How did CCCOc1ccccc1Cn1c(=O)oc2ccccc21 do in these assays?
Sfp PPTase inh: -7%; gsp antag: -8%; gsp agonist: -26%; Menin-MLL FL inh: -0.9; D2 agonist: -1.7; PINK1 modulator: -1.3%

What do the screens show for `O=c1c(-c2ccc(O)cc2)coc2c(C3O[C@H](CO)[C@@H](O)[C@H](O)[C@H]3O)c(O)ccc12` (stereo partly drawn)?
Sfp PPTase inh: 20%; gsp antag: 18%; gsp agonist: -3%[15.4 µM]; Menin-MLL FL inh: 0.5; D2 agonist: -2.7; ClpP mod: 1.8%; PINK1 modulator: 1.2%

Results for NS(=O)(=O)c1ccc(N/C=C/C(=O)c2ccc(Br)cc2)cc1 ?
Sfp PPTase inh: -11%; gsp antag: 8%; gsp agonist: 8%; Menin-MLL FL inh: 12; D2 agonist: 2.6; ClpP mod: 4.6%; PINK1 modulator: 7.4%

How did CCc1ccc(NC(=O)CSC2=C(C#N)C(c3ccco3)C3=C(CCCC3=O)N2)cc1 (stereo not drawn) do in these assays?
Sfp PPTase inh: -5%; gsp antag: -7%; gsp agonist: -26%; Menin-MLL FL inh: -1.9; D2 agonist: -1.8; ClpP mod: -0.9%; PINK1 modulator: 0.4%

How did COC1=CC(=O)CC(C)C12Oc1cc(OC)cc(OC)c1C2=O (stereo not drawn) do in these assays?
Sfp PPTase inh: 7%; gsp antag: 0%; gsp agonist: -53%[inhibitor]; Menin-MLL FL inh: 1.2; D2 agonist: 1.4; ClpP mod: -26%; PINK1 modulator: 0.5%

Results for O=C(NCc1ccc(Cl)cc1)C1CCCN1C(=O)Nc1ccc(F)cc1 (stereo not drawn) ?
Sfp PPTase inh: 9%; gsp antag: 2%; gsp agonist: 17%; Menin-MLL FL inh: -2.1; D2 agonist: -7.4; ClpP mod: -2.1%; PINK1 modulator: 0.7%

How did Cc1c(C)c2ccc(OCC(=O)N[C@@H](Cc3ccccc3)C(=O)O)cc2oc1=O do in these assays?
Sfp PPTase inh: 21%; gsp antag: -14%; gsp agonist: -1%; Menin-MLL FL inh: -5.7; D2 agonist: -3.2; ClpP mod: 4.2%; PINK1 modulator: 4.2%

How did O=C(CN1CCOCC1)Nc1ccc(OC(F)(F)F)cc1 do in these assays?
Sfp PPTase inh: -29%; gsp antag: 12%; gsp agonist: -19%; Menin-MLL FL inh: 1.8; D2 agonist: 4.6; ClpP mod: 1.2%; PINK1 modulator: 0.4%

How did CCOc1ccccc1C(=O)N(Cc1cccs1)C1CCS(=O)(=O)C1 (stereo not drawn) do in these assays?
Sfp PPTase inh: 8%; gsp antag: 7%; gsp agonist: inconclusive; Menin-MLL FL inh: 5.8; D2 agonist: -1.9; ClpP mod: -4.1%; PINK1 modulator: -1.5%

What do the screens show for `COc1ccc(S(=O)(=O)Nc2nnc(CC(C)(C)C)s2)cc1`?
Sfp PPTase inh: -3%; gsp antag: -3%; gsp agonist: -4%[15.4 µM]; Menin-MLL FL inh: -0.8; D2 agonist: 2.4; PINK1 modulator: 1.8%

Results for CN1C=CC=C/C1=C1/N=C(c2ccccc2)OC1=O ?
Sfp PPTase inh: 14%; gsp antag: 0%; gsp agonist: inconclusive; Menin-MLL FL inh: -4.9; D2 agonist: -16; ClpP mod: -8.0%; PINK1 modulator: -1.3%

Results for CC(=O)c1sc(NC(=O)c2cc(-c3ccccc3)nn2-c2ccccc2)nc1C ?
Sfp PPTase inh: -4%; gsp antag: inconclusive; gsp agonist: inconclusive; Menin-MLL FL inh: 5.3; D2 agonist: 6.1; PINK1 modulator: 0.3%

What do the screens show for `CCOc1ccc2nc(SCC(=O)NC(=O)C(C)C)sc2c1`?
Sfp PPTase inh: 9%; gsp antag: -22%; gsp agonist: -6%[15.4 µM]; Menin-MLL FL inh: 0.2; D2 agonist: -3.5; PINK1 modulator: 3.6%

What do the screens show for `COc1ccc(-c2c(C#Cc3ccsc3)c3cc(-c4ccc5cc[nH]c5c4)ccc3n2C)cc1`?
gsp antag: 3%; gsp agonist: inconclusive; D2 agonist: 1.3; ClpP mod: 3.9%; PINK1 modulator: 6.4%

Screens: PubChem BioAssay, National Center for Advancing Translational Sciences (NCATS)
